VDR inhibitor – blocks the human vitamin D receptor | P11473 | VDR-SRC2-3 peptide fluorescence polarization, 2 h | Potency, µM, without a hit: max response, negative = inhibition, most hits filed as inhibitors | hit rate 0.93% among 400,000 | AID 504847; active means well fitted inhibition curve with a large enough effect; inconclusive means small, poorly fitted or top-dose-only effect, or another doubt; inactive means no such curve, though single readings can be large or run the other way; further: series mostly up to about 120 µM
Target sequence (P11473 whole entry, looked up): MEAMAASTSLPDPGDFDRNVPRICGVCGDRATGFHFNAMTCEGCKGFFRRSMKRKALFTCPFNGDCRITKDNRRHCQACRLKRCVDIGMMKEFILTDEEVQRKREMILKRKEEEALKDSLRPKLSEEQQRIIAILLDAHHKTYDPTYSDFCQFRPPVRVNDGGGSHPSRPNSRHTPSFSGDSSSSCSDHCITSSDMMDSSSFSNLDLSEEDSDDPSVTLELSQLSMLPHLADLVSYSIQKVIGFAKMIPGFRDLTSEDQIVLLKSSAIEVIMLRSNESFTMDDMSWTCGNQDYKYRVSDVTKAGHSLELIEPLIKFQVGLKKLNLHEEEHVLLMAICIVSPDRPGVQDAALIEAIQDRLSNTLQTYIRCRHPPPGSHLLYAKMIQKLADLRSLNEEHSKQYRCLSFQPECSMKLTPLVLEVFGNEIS
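Inhibition of the VDR/SRC2-3 peptide interaction is quantified by fluorescence polarization. Compounds (23 nl, pintool) incubate with the reagents for 2 hours at ambient room temperature.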
* = called active by the depositor; u = inconclusive; & = joins results of further samples; [ ] = dose if it differs, or a comment. On the % scale 0 is the no-effect control and ±100 the full control effect; potency means the concentration at half of the fitted maximal effect.

SMILES | VDR inhibitor
COc1ccc2[nH]c(=O)c(CN(CC3CCCO3)S(=O)(=O)c3ccccc3)cc2c1 (stereo unspecified) | -16%
Cc1ccc(C(=O)C(NC(=O)c2ccco2)N2CCOCC2)cc1 (stereo unspecified) | 3%
COc1ccc(-c2nc3c(C#N)c[nH]n3c2NC2CCCC2)cc1 | 11%
O=C(NC(CO)c1ccccc1)c1ccco1 (stereo unspecified) | -18%
Cc1ccc(C)c(NC(=O)CN(C)C(=O)c2ccc(-c3cccc(C(F)(F)F)c3)o2)c1 | -21%
O=[N+]([O-])c1ccc(S(=O)(=O)N(CC(O)CN2CCCCC2)c2ccccc2)cc1 (stereo unspecified) | -6%
CCN(CC)CC#CCC(C)(c1ccccc1)c1ccccc1 | -9%
CCCCN(Cc1ccccc1)S(=O)(=O)c1ccc2c(c1)n(C)c(=O)c(=O)n2C | -15%
COCCn1nnnc1CN1CCC(NC(=O)Nc2cccc(OC)c2)CC1 | 13%
CCCCN(C)C(=O)C1CCC(CNS(=O)(=O)c2ccc(Cl)cc2)CC1 (stereo unspecified) | 10%
COCCc1ncc(CN2CCC(C(=O)Nc3ccc(-n4cccn4)cc3)CC2)cn1 | -6%
COc1ccc(-n2c(C)nc3cc(C(=O)NC4CCCCCC4)ccc32)cc1 | 15%
CC1(C)Cc2ccccc2C(NNC(=O)c2cccnc2)=N1 | -1%
COc1cccc(CN2CCNC(=O)C2CC(=O)NC2CCCCC2)c1OC (stereo unspecified) | -14%
CCN(c1ccccc1)S(=O)(=O)c1cc(C(=O)OCC(=O)c2c(N)n(C)c(=O)n(C)c2=O)ccc1C | -12%
Cc1ccc(NC(=O)C(OC(=O)c2ccc(C=O)cc2)c2ccccc2)cc1Cl (stereo unspecified) | 7%
COc1cc(/C=C2/NC(=O)N(Cc3ccccc3F)C2=O)ccc1Oc1ccc([N+](=O)[O-])cn1 | 16%
CC1CCCCC12NC(=O)N(Cc1cc(=O)n3ccsc3n1)C2=O (stereo unspecified) | -19%
CC(C)COc1ccc(C(=O)OC2CC(C)(C)OCC2CN(C)C)cc1 (stereo unspecified) | 7%
CSCC[C@H](NC(=O)OC(C)(C)C)c1nnc(SCC=C(C)C)o1 | -10%
COc1ccc(C(CNC(=O)COc2ccccc2)N2CCOCC2)cc1 (stereo unspecified) | 8%
Cc1cc(C(=O)NNC(=O)c2ccc(Cl)c(S(N)(=O)=O)c2)c(C)o1 | -5%
CCCc1nn(-c2cc(Cl)ccc2OC)c2c1C(=O)CCC2 | -16%
COc1cccc(NC(=O)CSc2nnc(CNC(=O)c3ccccc3F)o2)c1 | -8%
CC(=O)N1CCOc2ccc(S(=O)(=O)NCc3ccc(C)cc3)cc21 | -13%
COc1ccc(C(C)NC(=O)c2ccoc2C)cc1OC (stereo unspecified) | 9%
O=c1c2c3c(sc2nc2n1CCCS2)CCCC3 | 4%
CCc1c(C)nc2nncn2c1Nc1cccc(C)c1 | 4%
CC(C)NC(=O)c1ccc2c(c1)nnn2C | -8%
CC1CC1C(=O)N1CCN(S(=O)(=O)c2cccc(F)c2)CC1 (stereo unspecified) | 0%
CCOC(=O)c1ccc(N2CCN(c3cccc(OC)c3)CC2)c(NC(=O)Nc2ccc(OCC)cc2)c1 | 4%
COc1ccc(N2CCN(C(=O)C3COc4ccccc4O3)CC2)cc1 (stereo unspecified) | 8%
CC(C)[C@H](NC(=O)c1ccccc1)C(=O)Nc1cccc(S(=O)(=O)N2CCOCC2)c1 | -18%
CCOC(=O)c1c(C)oc2nc(C)nc(NCc3ccccc3OCC)c12 | 15%
COc1cc(CNc2ccccc2)c([N+](=O)[O-])cc1OC | 1%
CCC(C)(C(=O)NC1CCCC1)N(C(=O)Cc1cccs1)c1c(C)n(C)n(-c2ccccc2)c1=O (stereo unspecified) | -9%
CCOc1ccc2nc(N3CCC(C(=O)N4CCN(c5ncccn5)CC4)CC3)sc2c1 | 2%
COc1cc([N+](=O)[O-])c2nc(C=NNC(N)=S)ccc2c1 | -4%
CCOc1ccccc1Nc1ccc2nonc2c1[N+](=O)[O-] | 7%
CC(c1nnnn1C(C)(C)C)N(Cc1cccnc1)Cc1ccccc1Cl (stereo unspecified) | -21%
COc1ccc(CCC(=O)NCCS(=O)(=O)N2CCN(c3ccccc3F)CC2)cc1 | -5%
Cc1c(Br)c([N+](=O)[O-])nn1CC(=O)N1CCN(C23CC4CC(CC(C4)C2)C3)CC1 | 12%
CCOc1ccc(N2C(=O)N(Cc3c(F)cccc3Cl)c3ccccc3S2(=O)=O)cc1 | 22%
Cc1cccnc1NC(=O)C1CCCN(S(=O)(=O)c2ccc3c(c2)oc(=O)n3C)C1 (stereo unspecified) | u
CC(=O)c1cccc(NC(=O)Cn2cc(C(=O)c3cccc(Cl)c3)c(=O)c3ccc(C)nc32)c1 | -1%
Cc1ccc(-n2c(SCn3nnc4ccccc4c3=O)nnc2-c2cccnc2)c(C)c1 | 7%
CCCCOc1ccc(C(=O)N/C(=C/C=C/c2ccccc2)C(=O)N2CCOCC2)cc1 | -25%
CC(C)CCNC1=NCCCCC1 | 1%
O=C(O)c1cn2c3c(ccc(Cl)c3c1=O)OCC2 | -26%
O=C(Cc1cccs1)NCCS(=O)(=O)N1CCN(c2ccccc2F)CC1 | 12%
O=C1CSc2ccccc2N1Cc1ccccc1F | -7%
Cc1ccc(S(=O)(=O)N(C)C)cc1NC(=S)Nc1ccc2[nH]c(=O)[nH]c2c1 | -4%
Cn1cc(C(=O)[C@@H]2CCc3[nH]cnc3C2)c2ccccc21 | 0%
Cc1cc(NC(=O)CSc2nnc(-c3cccc(F)c3)n2N)no1 | 2%
COc1ccc(-c2ccc(SCC(=O)Nc3nccs3)nn2)cc1OC | -3%
O=C(CCNS(=O)(=O)c1ccccc1)NCC1CCCCC1 | 20%
CN(CCOc1ccccc1)CC(=O)Nc1ccc(Cl)cc1[N+](=O)[O-] | -26%
COc1cc([C@@H]2c3cc4c(cc3[C@H](O)C3COC(=O)[C@@H]32)OCO4)cc(OC)c1OC (stereo partly specified) | -10%
COC(=O)CC1C(C)(C)C(O)C2CC3=C4C=C(OC)OC(c5ccoc5)[C@]4(C)CCC3[C@@]1(C)C2=O (stereo partly specified) | -14%
COc1ccccc1N1CCN(C(=O)c2cn(Cc3ccccc3)nc2-c2cccnc2)CC1 | -15%
The list goes on.
SMILES | VDR inhibitor
CCC(NC(=O)C1CCCO1)c1ccccc1 (stereo unspecified) | 4%
C#Cc1cccc(C(=O)N2CCCC(C(=O)c3ccc(OC)cc3C)C2)c1 (stereo unspecified) | -17%
CCC(Cc1ccccc1)NC(=O)c1cc(S(=O)(=O)N2CCCCC2)c[nH]1 (stereo unspecified) | -1%
O=C(COc1ccccc1)Nc1ccccc1Oc1ccccc1 | -3%
Cc1ccsc1/C=N/n1c(-c2ccncc2)n[nH]c1=S | 4%
C=CCn1c(SCc2ccccc2)nc2scc(-c3ccc(C)o3)c2c1=O | 5%
COc1ccc(-n2c(O)c(C=NCc3ccccn3)c3ccccc3c2=O)c(OC)c1 | -1%
CCOc1ccc(CN2C(=O)c3ccccc3C2=O)cc1C(=O)NC1CC(C)(C)NC(C)(C)C1 | 32%[activator]
COc1ccc(S(=O)(=O)Nc2ccccc2N2CCOCC2)cc1OC | 0%
COCCN1C(=O)C(O)=C(C(=O)c2cccs2)C1c1ccccc1 (stereo unspecified) | -10%
O=C(CNc1ccc2ccccc2c1)N/N=C/c1ccc(C(=O)O)cc1 | -16%
CCCCN(CCCC)C(=O)C1CC=CCC1C(=O)O (stereo unspecified) | u
Cc1ccc(OCCSc2nc3ccc(NC(=O)c4cccs4)cc3s2)cc1 | -2%
CC(=O)Nc1ccccc1OCc1nnc(-c2ccc(Cl)cc2)o1 | 34%[activator]
O=C(Nc1ccc2c(c1)OCO2)O[C@@H]1C[C@H]2CCC(=O)N3CC[C@@H](C1)[C@@H]23 | -14%
Cc1cc([N+](=O)[O-])c(C(C)(C)C)cc1N | 18%
CCOc1ccc(NC(=O)CSc2n[nH]c(N)n2)c([N+](=O)[O-])c1 | -7%
Cc1ccc(-c2cc(C(F)(F)F)n3ncc(-c4ccc(Cl)cc4)c3n2)cc1 | -5%
CCCN1CNC(=S)N(c2cccc(C)c2C)C1 | -4%
Cn1c(-c2ccccc2)cc(=O)c2ccccc21 | 7%
CN(c1ccc(OCC(=O)OCC(=O)Nc2ccc([N+](=O)[O-])cc2)cc1)S(=O)(=O)c1cccs1 | -23%
CCOC(=O)CCSCC(=O)Nc1nnc(C)s1 | 1%
C#CCOCCOCCOCCNc1nc(N2CCN(C(=O)[C@H](CCCCN)n3cc([C@@H](N)CC(C)C)nn3)CC2)nc(N2CCN(C(=O)[C@H](Cc3cc4ccccc4[nH]3)n3cc([C@@H](N)Cc4ccc(O)cc4)nn3)CC2)n1 | 0%
CN(Cc1ccccc1)C(=O)c1ccccc1N(C)S(=O)(=O)c1ccccc1 | 2%
COc1ccccc1NC(=O)c1ccccc1NC(=O)c1ccccc1 | -10%
Cc1ccc(C(=O)NNC(=O)c2cc3cc4ccccc4nc3s2)cc1 | 4%
CN(C)/C=N/C(=S)Nc1ccccc1Cl | -16%
Cc1ccc(S(=O)(=O)N2CCN(C(=O)CSC3CCCC3)CC2)c(C)c1 | 6%
Cc1ccc(-n2nc3ccc(NC(=O)c4oc5ccc(C)cc5c4C)cc3n2)cc1 | -11%
CCOC(=O)C1CCCN(C(=O)Nc2ccccc2)C1 (stereo unspecified) | -11%
CC1CCN(S(=O)(=O)c2ccc(NC(=O)CCN3C(=O)c4ccccc4C3=O)cc2)CC1 | 54%[activator]
COc1ccccc1NC(=O)Nc1nc2ccc(S(N)(=O)=O)cc2s1 | -19%
Cc1ccccc1C(=O)Nc1ccc(N2CCN(C)CC2)nc1 | 2%
COc1cc(C=O)ccc1OCC(=O)N1CCCC1 | 2%
COCCCN(C(=O)Nc1ccc(C)c(C)c1)C(C)c1ccccn1 (stereo unspecified) | -25%
COc1cccc(CNc2ccc(S(=O)(=O)Nc3nccs3)cc2)c1O | -4%
CN(c1ccccc1)S(=O)(=O)c1cccc(NC(=O)CSc2nncs2)c1 | -10%
CC(C)CN(CC(C)C)S(=O)(=O)N1CCC(C(=O)NCc2cccnc2)CC1 | -28%
COc1ccc(OC)c(-c2nc3ccccc3nc2-c2ccccc2)c1 | 10%
NNC(=O)c1cc(-c2ccccc2)sc1N | -7%

A run of entries from further up, as a working copy:
SMILES | VDR inhibitor
COc1ccc(OC)c(-c2nc3ccccc3nc2-c2ccccc2)c1 | 10%
NNC(=O)c1cc(-c2ccccc2)sc1N | -7%

New compounds follow
SMILES | VDR inhibitor
Cc1cccc(C(C)C)c1NC(=O)COC(=O)c1cc2ccccc2oc1=O | 7%
C=CCn1c(SCC(=O)c2ccc(O)c(O)c2)nnc1-c1ccccc1OC | -7%
COc1ccc(C(=O)OCC#CCSc2nnc(-c3cccc4ccccc34)o2)cc1 | -14%
Cc1ccccc1C1=C/C(=C(\SS/C(C(=O)c2ccc(OCC(=O)O)c(Cl)c2Cl)=C2\C=C(c3ccccc3C)SS2)C(=O)c2ccc(OCC(=O)O)c(Cl)c2Cl)SS1 | 40µM*
CC(C#N)(CCc1ccccn1)CCc1ccccn1 | -8%
Cn1c(CNC(=O)c2ccccc2)nnc1SCC(=O)Nc1nccs1 | u
COc1ccccc1NC(=O)CSc1nc(SC)ns1 | 3%
CCOc1cccc(/C=N/NC(=O)c2cc(-c3cccn3C)n[nH]2)c1O | -2%
Cc1ccccc1CS(=O)(=O)CC1(O)CCN(C(=O)c2cccc(C(F)(F)F)c2)CC1 | -4%
CCOC(=O)c1ccc(Oc2nc(OC)nc(N(C)C)n2)cc1 | 15%
CC1(C(=O)O)CCC(C(=O)Nc2ccc(F)cc2)C1(C)C (stereo unspecified) | -1%
COc1cccc(/C=C/C(=O)OCC(=O)Nc2cc(C(F)(F)F)ccc2Cl)c1 | -3%
O=C(O)COc1ccccc1/C=N/NC(=O)CSc1nc2ccccc2s1 | -17%
CCOc1ccc(Nc2c(S(=O)(=O)c3ccc(C)cc3)cnc3cc(OC)c(OC)cc23)cc1 | 10%
COc1ccc(-c2nc(-c3ccccc3)oc2Nc2ccccc2C)cc1 | -1%&7%
Nc1nc(O)c(Sc2ccccc2[N+](=O)[O-])c(=O)[nH]1 | -10%
O=C1CCC(CCC(=O)N2CCCC(C(=O)c3ccc(Cl)cc3)C2)=NN1 (stereo unspecified) | -12%
Brc1ccc(-c2csc3[n+]2CCCCC3)cc1 | -3%
Cc1cnc(C(=O)Nc2cccc3ncccc23)cn1 | -8%

Ordered by heavy-atom count (low to high): some entries from above
SMILES | VDR inhibitor
NNC(=O)c1cc(-c2ccccc2)sc1N | -7%
Brc1ccc(-c2csc3[n+]2CCCCC3)cc1 | -3%
Nc1nc(O)c(Sc2ccccc2[N+](=O)[O-])c(=O)[nH]1 | -10%
CC(C#N)(CCc1ccccn1)CCc1ccccn1 | -8%
CC1(C(=O)O)CCC(C(=O)Nc2ccc(F)cc2)C1(C)C (stereo unspecified) | -1%
CCOC(=O)c1ccc(Oc2nc(OC)nc(N(C)C)n2)cc1 | 15%
CCOc1cccc(/C=N/NC(=O)c2cc(-c3cccn3C)n[nH]2)c1O | -2%
COc1ccc(-c2nc(-c3ccccc3)oc2Nc2ccccc2C)cc1 | -1%&7%
C=CCn1c(SCC(=O)c2ccc(O)c(O)c2)nnc1-c1ccccc1OC | -7%
COc1ccc(C(=O)OCC#CCSc2nnc(-c3cccc4ccccc34)o2)cc1 | -14%
CCOc1ccc(Nc2c(S(=O)(=O)c3ccc(C)cc3)cnc3cc(OC)c(OC)cc23)cc1 | 10%
Cc1ccccc1C1=C/C(=C(\SS/C(C(=O)c2ccc(OCC(=O)O)c(Cl)c2Cl)=C2\C=C(c3ccccc3C)SS2)C(=O)c2ccc(OCC(=O)O)c(Cl)c2Cl)SS1 | 40µM*

An excerpt; count on the stated rates, not on these rows.
